Compound activity from PubChem BioAssay.
CBX7 inh – blocks human CBX7 binding to H3K27me3 peptide; AlphaScreen His6-CBX7 / biotin-H3K27me3 peptide binding; stronger effect = lower value; O95931; 66,000 tested, 1.1% active; normalised signal (fraction of DMSO) (concentration not given with the values); in the data active means normalised signal below about 0.5;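 further: 100 nL library stock added to about 20 µL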
Target sequence (O95931 whole entry, looked up): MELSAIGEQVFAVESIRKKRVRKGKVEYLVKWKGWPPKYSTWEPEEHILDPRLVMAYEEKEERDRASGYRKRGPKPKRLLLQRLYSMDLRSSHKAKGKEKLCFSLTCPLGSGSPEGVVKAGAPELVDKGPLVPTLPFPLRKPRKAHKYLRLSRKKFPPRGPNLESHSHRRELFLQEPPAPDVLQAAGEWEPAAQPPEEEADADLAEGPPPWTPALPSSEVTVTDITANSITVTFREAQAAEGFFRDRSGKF
CBX7 inh z-score – second read-out of CBX7 inh, no call of its own (marks repeat the call); z-score; measured here: z-score of CBX7 signal; some inactives read as strong as hits; reference of the scale not given here;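 same signal on another scale; lower means less binding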
* hit, by the source's call; & = joins results of further samples. An excerpt (hit frequency here may not be typical).

SMILES | CBX7 inh | CBX7 inh z-score
CC(NS(=O)(=O)c1ccc2c(c1)CCN2C(=O)CCC(=O)O)c1ccccc1 (configuration not stated) | 0.868 | -2.17
CCN1CCCC1CNC(=O)c1cc2c(-c3ccc(Cl)cc3)nn(C)c2s1 (configuration not stated) | 1.11 | 0.441
Fc1cccc(Cl)c1Cn1nnc(-c2ccc3c(c2)OCO3)n1 | 1.02 | 0.459
CC1CCc2c(C(=O)NCCCN3CCN(c4ccccc4F)CC3)csc2C1 (configuration not stated) | 1.01 | 0.255
Cc1ccc(CNC(=O)CC2Oc3ccccc3NC2=O)cc1 (configuration not stated) | 0.954 | -0.881
CCc1ccccc1NS(=O)(=O)c1ccc2c(c1)CCN2C(=O)C1CC1 | 0.937 | -1.5
CCOc1ccc(-c2n[nH]c(C)c2Oc2ccccc2)c(O)c1C | 0.843 | -0.735
CCOc1ccc(-c2cc(CCCC(=O)Nc3cc(C)cc(C)c3)no2)cc1 | 0.916 | -0.363
Cc1ccc(C)c(-n2c(Cc3cc(=O)[nH]c(=O)[nH]3)nnc2SCC(=O)N2CCOCC2)c1 | 1.01 | 0.0435
Cc1nn(Cc2ccc(Cl)cc2)c(C)c1NC(=O)c1cc(-c2ccc3c(c2)OCO3)on1 | 0.826 | -2.41
CCOc1ccc(C(=O)Nc2ccc(C)cc2)cc1Br | 1.2 | 2.11
O=C(Nc1ccc(F)cc1F)C(Cc1ccccc1)NS(=O)(=O)c1cccc2cccnc12 (configuration not stated) | 1.14 | 1.15
CCOc1ccc(C(=O)c2cn(Cc3ccccc3)c3cc(OC)c(OC)cc3c2=O)cc1 | 0.717 | -0.997
O=C(Cn1nc(-c2ccc(Cl)cc2)c2ccccc2c1=O)Nc1ccc2ccccc2c1 | 0.97 | -0.342
CC(C(=O)NCCc1cccc2ccccc12)N1C(=O)c2ccccc2C1=O (configuration not stated) | 1.02 | 0.0232
CCOc1ccc(C(=O)c2cn(Cc3ccc(F)cc3)c3ccc(F)cc3c2=O)cc1 | 0.844 | -1.49
COc1ccccc1NC(=O)c1sc2ncn(CC(=O)Nc3ccc(C)c(Cl)c3)c(=O)c2c1C | 1.05 | 1.6
COc1ccc2c(c1)CCc1c(C(=O)Nc3ccc(F)cc3F)noc1-2 | 1.03 | 0.622
CCCCNC(=O)CN1C(=O)COc2ccc(S(=O)(=O)N3CC(C)CC(C)C3)cc21 (configuration not stated) | 1.03 | 0.803
CCC1=Nc2cc(C(=O)N3CCN(c4cc(Cl)ccc4C)CC3)ccc2Sc2ccc(C)cc21 | 1.01 | 0.15
CCC(C)[C@@H](C(=O)NCCc1ccccc1)N1Cc2ccccc2C1=O (some centres not stated) | 1.04 | 0.696
Cn1ccnc1SCC(=O)Nc1ccc2nc(SCC(=O)N3CCOCC3)sc2c1 | 1.01 | 0.199
Cc1ccc2c(c1)N(CCC(=O)NC1CCCc3ccccc31)C(=O)CO2 (configuration not stated) | 1.06 | 1.51
O=S(=O)(c1cccc2cccnc12)N1CCN(c2cccc(Cl)c2)CC1 | 0.97 | -0.679
COc1ccc(C(=O)c2oc3ccccc3c2NC(=O)c2cccc(Cl)c2)cc1 | 1.33 | 1.18
COc1ccc(CCNC(=O)c2cc3c(C)nccc3[nH]c2=O)cc1OC | 0.943 | -1.06
Cc1ccc(NC(=O)CCc2nc(-c3ccccc3F)no2)c(Br)c1 | 1.05 | 0.728
COc1ccc(-c2cc(-c3nc(-c4ccc(Cl)cc4)no3)c3ccccc3n2)cc1 | 1.09 | 0.957
O=C(Nc1ccc(Cl)c(Cl)c1)Nc1nc(-c2ccccc2)cs1 | 1.1 | 1.68
CCOc1ccc2nc(N3CCC(C(=O)NC4CCC(C)CC4)CC3)sc2c1 (configuration not stated) | 0.754 | -1.08

Individual results from the list:
Entry for COc1ccc(-c2cc(-c3nc(-c4ccc(Cl)cc4)no3)c3ccccc3n2)cc1 in CBX7 inh: 1.09
Entry for O=C(Nc1ccc(Cl)c(Cl)c1)Nc1nc(-c2ccccc2)cs1 in CBX7 inh z-score: 1.68
Entry for COc1ccc(CCNC(=O)c2cc3c(C)nccc3[nH]c2=O)cc1OC in CBX7 inh: 0.943

Entries from the list above that have an aryl methoxy group, in the order listed:
SMILES | CBX7 inh | CBX7 inh z-score
CCOc1ccc(C(=O)c2cn(Cc3ccccc3)c3cc(OC)c(OC)cc3c2=O)cc1 | 0.717 | -0.997
COc1ccccc1NC(=O)c1sc2ncn(CC(=O)Nc3ccc(C)c(Cl)c3)c(=O)c2c1C | 1.05 | 1.6
COc1ccc2c(c1)CCc1c(C(=O)Nc3ccc(F)cc3F)noc1-2 | 1.03 | 0.622
COc1ccc(C(=O)c2oc3ccccc3c2NC(=O)c2cccc(Cl)c2)cc1 | 1.33 | 1.18
COc1ccc(CCNC(=O)c2cc3c(C)nccc3[nH]c2=O)cc1OC | 0.943 | -1.06
COc1ccc(-c2cc(-c3nc(-c4ccc(Cl)cc4)no3)c3ccccc3n2)cc1 | 1.09 | 0.957

(list continues)
SMILES | CBX7 inh | CBX7 inh z-score
O=C(NCCc1c[nH]c2ccccc12)C(=O)Nc1ccc2c(c1)OCO2 | 0.976 | -0.264
CCc1ccc(NC(=O)C(Cc2ccccc2)NS(=O)(=O)c2ccc3c(c2)CCC(=O)N3)cc1 (configuration not stated) | 1 | 0.0795
Cc1cc(C)c2c(c1)C(O)(CC(=O)c1ccccn1)C(=O)N2 (configuration not stated) | 1.05 | 1.61
O=C1CC(c2cc3c(cc2Br)OCO3)c2cc3c(cc2N1)OCO3 (configuration not stated) | 1.16 | 1.57
O=C(C1CCC1)N1CCc2cc(S(=O)(=O)NCCN3CCN(c4ccccc4F)CC3)ccc21 | 0.995 | -0.141
Clc1ccc(-c2nc(-c3cccnc3)no2)c(Cl)c1 | 1.05 | 0.7
O=C(Cn1ncc2c1-c1ccccc1OC2)N1CCN(c2cccc(C(F)(F)F)c2)CC1 | 0.84 | -4.61
Cc1ccc(C(=O)c2coc3cc(C)ccc3c2=O)cc1 | 1.16 | 2.82
CCOC(=O)CNS(=O)(=O)c1cc(-c2nnc(Nc3cccc(C)c3)c3ccccc23)ccc1C | 0.819 | -3.41
O=C(O)c1[nH]c2ccccc2c1CC(=O)N1CCCC1 | 1.01 | 0.252
COc1ccc(NC(=O)c2noc3c2CCc2cc(OC)ccc2-3)cc1 | 1.03 | 0.313
Cc1nc2ccc(S(=O)(=O)NC(CC(C)C)C(=O)N3CCCCC3)cc2s1 (configuration not stated) | 1.18 | 3.29
CCn1cc(CNC(=O)c2cc(-c3ccccc3OC)nc3ccccc23)c(C)n1 | 1.08 | 1.03
CCN1CCN(C(=O)C2CCN(Cc3nc(-c4cccc(Cl)c4)oc3C)CC2)CC1 | 1.08 | 1.96
COc1ccc(Cl)cc1NC(=O)CSc1nccn1C | 1.01 | 0.363
Cc1cc(=O)[nH]c(SCc2nc3ccccc3n2C)n1 | 1.02&1.26 | 0.463&0.905
CCOC(=O)C1CCCc2c1[nH]c1c(C(=O)Nc3ccccc3)cccc21 (configuration not stated) | 0.575 | -11.5
c1ccc(COc2ccc(Oc3ncnc4sc5c(c34)CCCC5)cc2)cc1 | 1.18 | 0.367
CCOc1ccc2nc(N3CCCC(C(=O)Nc4ccccc4CC)C3)sc2c1 (configuration not stated) | 1.09 | 2.49
COCCNc1nc(SCC(=O)NCCC(C)C)nc2ccccc12 | 1.04 | 2.11
Cc1nc2nc(SCC(=O)NCc3ccccc3)nn2c(C)c1Cc1ccccc1Cl | 1.1 | 0.969
O=C(Nc1ccccc1F)c1ccn(C(=O)c2cccc(Cl)c2)n1 | 1.15 | 0.307
Cc1ccc(OCC(=O)NCc2ccncc2)c(C)c1 | 0.936 | -0.736
CCCCNC(=O)c1c[nH]c2ccc(S(=O)(=O)N3CC(C)CC(C)C3)cc2c1=O (configuration not stated) | 1.07 | 1.04
CC1=Nc2cc(C(=O)NCC3CCCO3)ccc2Sc2c(C)ccc(C)c21 (configuration not stated) | 0.897 | -1.58
COc1ccc(-c2[nH]c(-c3ccccc3)nc2SCC(=O)Nc2ccc3c(c2)OCO3)cc1 | 0.865 | -3.6
CCN(CC)c1cc(C)c2cc(NC(=O)c3cnccn3)ccc2n1 | 0.999 | -0.0079
Cc1cccc(Nc2cc(C)nc3nc(C)nn23)c1 | 1.01 | 0.204
Cc1cccc(OCC(=O)Nc2cccc(-c3nc4ncccc4o3)c2C)c1 | 1.06 | 2.31
O=c1c(S(=O)(=O)c2ccc(F)cc2)c[nH]c2ccc(Cl)cc12 | 1.12 | 4.9

Structures shown so far that have a COOH group:
SMILES | CBX7 inh | CBX7 inh z-score
CC(NS(=O)(=O)c1ccc2c(c1)CCN2C(=O)CCC(=O)O)c1ccccc1 (configuration not stated) | 0.868 | -2.17
O=C(O)c1[nH]c2ccccc2c1CC(=O)N1CCCC1 | 1.01 | 0.252

(list continues)
SMILES | CBX7 inh | CBX7 inh z-score
COc1cccc(-c2nn(C)c3sc(C(=O)NCc4ccc(OC)cc4OC)cc23)c1 | 0.848 | -1.57
COc1cc(Nc2cc(C)nc3nc(C)nn23)cc(OC)c1 | 1.03 | 0.564
Cc1ccccc1OC1C(=O)N(Cc2ccc3c(c2)OCO3)C1c1ccc2c(c1)OCO2 (configuration not stated) | 0.946 | -1.91
Cc1cccc(OCCCC(=O)Nc2nnc(C(C)C)s2)c1 | 1.11 | 1.09
CCCCN(C)C(=O)c1ccc2c(c1)N(CC)C(=O)c1ccccc1S2(=O)=O | 1.01 | 0.329
COc1ccc(-n2c(Cc3cc(=O)[nH]c(=O)[nH]3)nnc2SCc2ccc(Cl)cc2)cc1 | 1.03 | 0.493
NS(=O)(=O)c1ccc(NC(=O)c2cc3c(n(-c4ccc(Cl)cc4)c2=O)CCCC3=O)cc1 | 0.972 | -1.46
COc1cccc(NC(=O)Cn2cnc3ccc(S(=O)(=O)N4CCC(C)CC4)cc3c2=O)c1 | 1.07 | 0.636
CC1CCCC(C)N1CCNC(=O)CCn1nc(-c2ccc(Cl)cc2)ccc1=O (configuration not stated) | 1.02 | 0.507
CCOc1ccc(NC(=O)N(C2CCCCC2)C(C)c2ccncc2)cc1 (configuration not stated) | 0.996 | -0.201
CC(=O)N1CCc2cc(S(=O)(=O)NC(C)c3ccccc3)ccc21 (configuration not stated) | 1.03 | 0.942
Cc1ccc(-n2c3c(cc(C(=O)NCCCn4ccnc4)c2=O)C(=O)CC(C)(C)C3)cc1 | 0.996 | -0.14
CCCOc1ccc(C(=O)Nc2ccc3oc(-c4ccc(F)cc4)nc3c2)cc1 | 1.03 | 1.33
CCN(CC)S(=O)(=O)c1ccc(C(=O)Nc2nnc(C(C)C)s2)cc1 | 1.14 | 3.08
Cc1c(C)n(CC(O)CNC(C)c2ccccc2)c2ccccc12 (configuration not stated) | 0.87 | -5.74
O=C(CCN1N=C(c2ccccc2)CCC1=O)NCc1ccccc1 | 1.07 | 1.21
Cc1ccc(-c2nc(S(=O)(=O)c3ccc(C)cc3)c(N3CCOCC3)o2)cc1 | 0.936 | -0.696
COc1ccc(CCNC(=O)c2ccc3c(c2)N(Cc2ccccc2C)C(=O)CS3)cc1OC | 0.934 | -0.639
CC(C)n1c(CCNC(=O)c2ccccc2)nc2ccccc21 | 1.05 | 0.71
Cc1ccc(CNC(=O)C2CCCN(c3nc4ccccc4o3)C2)cc1 (configuration not stated) | 1.08 | 4.31
Cc1nc2c(C(=O)NCc3cccs3)cnn2c(C)c1Cc1c(F)cccc1Cl | 0.949 | -1.49
Cc1ccccc1Nc1c(-c2cccc(Cl)c2)nc2ncccn12 | 0.81 | -1.94
Cc1ccc(Nc2c(-c3ccsc3)nc3ncccn23)c(C)c1 | 1.06 | 1.17
Cc1oc(-c2cccc(F)c2)nc1CSCC(=O)O | 1.05 | 0.553
Cc1ccc(CNC(=O)c2cnn3c(C)c(Cc4ccc(F)cc4)c(C)nc23)cc1 | 1.11 | 0.803
CCOc1cccc(C(=O)Nc2nnc(COc3ccc(C(C)CC)cc3)s2)c1 (configuration not stated) | 1.08 | 0.918
COc1c(C)cccc1C(=O)Nc1cc(-c2nn3c(C)nnc3s2)ccc1C | 0.965 | -1.02
O=C(Nc1nnc(-c2cccs2)s1)c1ccc(F)cc1 | 0.977 | -0.571
CCN1CCN(C(=O)Cn2ncc3ccsc3c2=O)CC1 | 0.979 | -0.466
Cc1cccc(C)c1NC(=O)c1cc(S(=O)(=O)N2CCC(C)CC2)ccc1F | 1.1 | 1.06
CCCCc1ccc(NC(=O)c2cnc3sccn3c2=O)cc1 | 1.01 | 0.0991
O=S(=O)(c1ccccc1)c1nc(-c2ccc(Cl)cc2)oc1N1CCCCCC1 | 0.676 | -8.56
O=C(CCCN1C(=O)c2ccccc2C1=O)Nc1c2c(nc3c1CCC3)CCC2 | 1.05 | 0.723
COc1cccc(-c2nc3sc4c(c3c(=O)n2Cc2ccccc2Cl)CCCC4)c1 | 1.14 | 2.42
O=C(O)C1CCN(C2CC(=O)N(c3cccc(Cl)c3)C2=O)CC1 (configuration not stated) | 0.95 | -0.69
CN(C(=O)c1cnc(N2CCN(c3ncccn3)CC2)c2ccccc12)c1ccc(F)cc1 | 1 | 0.118
COc1ccccc1Nc1ncc(C(=O)N(C)c2ccc(C(C)C)cc2)c2ccccc12 | 1.05 | 0.366
CCc1cccc(NC(=O)C2CCN(S(=O)(=O)c3cccc4nsnc34)CC2)c1 | 1.01 | 0.0182
COc1cccc(-c2nnc(SCC(=O)N3CCCC3)o2)c1 | 1.01 | 0.247
CCn1c(C(=O)N2CCCC(C(=O)N3CCN(c4ccc(OC)cc4)CC3)C2)cc2sccc21 (configuration not stated) | 0.697 | -1.33

Profiles as entered above. Values in the order: CBX7 inh	CBX7 inh z-score
`COc1cccc(-c2nc3sc4c(c3c(=O)n2Cc2ccccc2Cl)CCCC4)c1` is listed as 1.14	2.42
`CCCCc1ccc(NC(=O)c2cnc3sccn3c2=O)cc1` is listed as 1.01	0.0991

(further entries)
SMILES | CBX7 inh | CBX7 inh z-score
Cc1ccc(NC(=O)c2c(-c3ccccc3Cl)noc2C)cc1Cl | 0.935 | -1.02
COc1ccc(C2=CSC3=NCCN23)cc1Br | 0.921 | -0.874
NS(=O)(=O)c1ccc2nc(NC(=O)c3ccc(S(=O)(=O)N4CCCCC4)cc3)sc2c1 | 1.01 | 0.448
CC(C)Nc1nc(-c2ccccc2)nc2ccccc12 | 1.05 | 1.93
